# Ecoli growth: E. coli growth inhibition, primary screen, OD600; Escherichia coli growth, 23 h; active compounds read low; OD600 absorbance (test concentration not listed); hit rate 0.21% among 330,000; AID 1053175, 2014;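 active = OD600 absorbance below the run mean of sample wells minus 3.6 SD, in any replicate, cut at about 0.56 in these data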;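 also: stock transfer was 300 nL into about 60 µL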
# ALR H2O2 inh: inhibitors of human ALR sulfhydryl oxidase, primary screen, biochemical, H2O2 detection, HRP-luminol luminescence, single point; purified ALR, DTT oxidation; hit rate 3.8% among 290,000; inhibition, % (test concentration not listed); AID 485317, 2010;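 active = mean and each replicate at 75% or more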;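 also: stock transfer was 7.5 nL into about 7.5 µL; 0% = neutral wells and 100% = wells with inactivated enzyme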
# LANA-H2B inh: blockers of LANA interaction with H2A/H2B – biochemical, FP readout, HTS, primary screen; Protein LANA1 (Human herpesvirus 8 type P (isolate GK18)), Q9QR71; inhibition, % (concentration not given with the values); hit rate 0.6% among 320,000; cell-free LANA-H2A/H2B peptide, fluorescence polarization; in the data active = inhibition mostly above about 10%, no sharp cut-off; inactive = mostly below about 6.7%;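 also: stock transfer was 7.5 nL into about 10 µL; 0% = median of vehicle wells and 100% = median of positive control wells; one replicate is shown; the record names a cut of 25% in any replicate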
# FGF22 binding: binders of human FGF22 protein, primary screen, FGF22 synaptogenesis inhibitor project, biophysical, thermal shift, single point; calls only at 9.99 µM; Fibroblast growth factor 22 (Homo sapiens), Q9HCT0; hit rate 1.5% among 340,000; recombinant FGF22 thermal shift, SYPRO orange fluorescence; percent of sucrose octasulfate shift, DMSO zero; AID 651658, 2012;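 active = melting point raised past a set limit in the mean and every replicate; three in four hits are not shown here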
# Target sequence (Q9HCT0 whole entry, looked up): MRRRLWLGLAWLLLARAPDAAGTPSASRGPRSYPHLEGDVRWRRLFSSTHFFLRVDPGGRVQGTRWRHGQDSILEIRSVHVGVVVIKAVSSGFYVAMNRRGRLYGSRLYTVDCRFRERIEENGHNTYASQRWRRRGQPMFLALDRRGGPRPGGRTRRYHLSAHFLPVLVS
# HNF4A DNA FP: change in binding of human HNF4A to DNA, primary screen, biochemical, fluorescence polarization, FITC-DNA | 1 h | activity change, % at 10 µM | hit rate 0.3% among 360,000 | AID 1224865, 2016; in the data active = activity change above about 30%, passing the limit was not always enough;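 also: controls were the assay level and a saturating level of protein; the project sought stronger binding though the title names inhibitors; some compounds called inactive have numbers as strong as hits; positive values seem to mean higher polarization but the record does not say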
# Target sequence (P41235 whole entry, looked up): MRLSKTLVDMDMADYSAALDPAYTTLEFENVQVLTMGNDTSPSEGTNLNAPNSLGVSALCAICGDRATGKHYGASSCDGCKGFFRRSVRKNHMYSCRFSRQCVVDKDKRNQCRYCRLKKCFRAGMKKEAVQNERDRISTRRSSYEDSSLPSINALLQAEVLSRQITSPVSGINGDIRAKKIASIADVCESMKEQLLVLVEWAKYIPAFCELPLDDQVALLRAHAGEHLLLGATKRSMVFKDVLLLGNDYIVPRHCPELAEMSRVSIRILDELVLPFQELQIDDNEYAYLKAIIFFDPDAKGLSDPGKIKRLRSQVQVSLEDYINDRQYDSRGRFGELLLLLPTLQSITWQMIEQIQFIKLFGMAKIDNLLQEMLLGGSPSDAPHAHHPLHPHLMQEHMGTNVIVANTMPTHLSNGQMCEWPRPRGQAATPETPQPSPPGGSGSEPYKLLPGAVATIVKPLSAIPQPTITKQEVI
# B2AR ag: beta2AR agonists driving receptor internalization, primary screen, cell-based, FAP fluorogen, flow cytometry | Beta-2 adrenergic receptor (Homo sapiens), P07550 | Am2.2-beta2AR cells; reference of the scale not given here | response, % (no concentration beside the values) | hit rate 0.43% among 340,000 | AID 504454, 2011;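 active = response above a set limit, near 3 SD of response in nonfluorescent compounds, cut at about 42% in these data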;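 also: stock transfer was 100 nL into about 11 µL; a reference agonist was the positive control; negative values mostly stem from fluorescent compounds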
# UCH37 inh: inhibitors of human UCH37 deubiquitinase, primary screen, biochemical, Ub-AMC cleavage, fluorescence. Ubiquitin carboxyl-terminal hydrolase isozyme L5 (Homo sapiens), Q9Y5K5. purified proteasome/UCH37. inhibition, % (no concentration beside the values). hit rate 0.33% among 330,000;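 active = mean of two replicates above 20%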;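 also: 0% = compound-free wells with enzyme and 100% = wells lacking proteasome; stock transfer was 100 nL into about 20 µL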
# Target sequence (Q9Y5K5 whole entry, looked up): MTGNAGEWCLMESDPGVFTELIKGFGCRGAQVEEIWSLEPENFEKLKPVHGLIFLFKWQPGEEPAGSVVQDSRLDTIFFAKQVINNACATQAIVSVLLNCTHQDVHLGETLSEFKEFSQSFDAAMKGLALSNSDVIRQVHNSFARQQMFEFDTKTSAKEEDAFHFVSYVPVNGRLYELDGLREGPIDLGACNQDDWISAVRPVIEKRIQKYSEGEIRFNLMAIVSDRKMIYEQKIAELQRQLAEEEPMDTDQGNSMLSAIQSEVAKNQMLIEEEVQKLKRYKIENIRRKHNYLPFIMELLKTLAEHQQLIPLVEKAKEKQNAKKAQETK
#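 Material: Human UCH37 enzyme supplied as purified proteasome complex | Schedule: 30 min preincubation with enzyme, 25 min cleavage at room temperature | Detection: AMC fluorescence 355/460 nm | Measure: % inhibition of Ub-AMC cleavage fluorescence | Controls: Wells without proteasome as full block, compound-free enzyme plus substrate as uninhibited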
# An asterisk follows results filed as active; i = inactive; . = not tested or not shown.
# Every second line gives: Ecoli growth, ALR H2O2 inh, LANA-H2B inh, FGF22 binding, HNF4A DNA FP, B2AR ag, UCH37 inh
COC(=O)c1ccc2c(c1)NC(=O)CS2
    0.698, -1.0, -9.7, i, 3.1, 12.9, -1.4
COc1ccc(C(C(C(=O)c2ccco2)N2CCOCC2)N2CCOCC2)cc1 (centres undefined)
    0.697, 7.2, -5.2, ., 0.0, 0.2, -3.3
Cn1ncc(Br)c1NC(=O)CSc1ccc(Cl)cc1
    0.682, ., -4.9, i, -1.3, -5.2, 4.8
O=C(CN1CCCC1)Nc1nnc(-c2cccs2)s1
    0.711, 7.3, 2.7, i, -1.7, -4.4, -12.8
CC(C)C[C@H]1CNC(=S)N1CC1CCCN1C[C@H](CC(C)C)N1C[C@H](Cc2ccc(O)cc2)N(CC2CCCCC2)C1=S (some centres undefined)
    ., ., ., i, -1.4, -6.8, .
O=C1CC(C(=O)Nc2cccc(F)c2)n2c(nc3ccccc32)N1 (centres undefined)
    0.697, ., -1.0, i, -3.6, -7.1, 2.8
COc1ccccc1OCCSc1nnc(CNC(=O)c2ccco2)n1C
    ., ., -3.1, i, 1.2, 7.8, .
COCCN1CC(=O)N2C(c3cccc(C)c3)c3[nH]c4ccccc4c3C[C@H]2C1=O (some centres undefined)
    0.645, ., 1.8, i, -4.8, 1.4, 1.0
Cc1cc(NC(=O)CSc2sc3c(O)cc(=O)[nH]c3c2C#N)ccc1Br
    0.705, 99.1*, 4.1, ., -11.5, -0.9, 1.6
CCOC(=O)N1CCC(NC(=O)c2cc(C(=O)Nc3ccc(S(=O)(=O)N4CCCCC4)cc3)ccc2CO)CC1
    0.716, ., -4.1, i, -0.5, -9.3, 3.3
COc1ccc(/C=N/NC(=O)c2cc(-c3ccccc3)nc3ccccc23)c(OC)c1
    ., 1.3, -10.8, i, 0.7, 7.1, .
O=C(CN1C(=O)NC(Cc2c[nH]c3ccccc23)C1=O)NC1CC1 (centres undefined)
    0.697, -23.6, -4.8, i, 4.8, 4.3, 0.4
Nc1ccn(C2OC(COP(=O)(O)O)C(O)C2O)c(=O)n1 (centres undefined)
    ., ., ., i, 3.5, 4.9, .
CCCCN(CCCC)C(=O)CCS(=O)(=O)c1ccc2c(c1)n(C)c(=O)c(=O)n2C
    0.778, 52.0, 2.7, ., 1.0, 0.3, 1.0
COc1ccccc1OCC(=O)Nc1nnc(C2CCCC2)s1
    0.733, -9.9, 3.0, i, -5.4, -8.1, -1.9
COCCN1C(=O)C(=O)/C(=C(/O)c2ccc(S(=O)(=O)N3CCOCC3)cc2)C1c1ccc(O)c(OC)c1 (centres undefined)
    0.695, 16.1, -2.3, ., -2.4, 2.5, 11.1
O=C(CC1Nc2ccccc2NC1=O)NCCc1ccccc1 (centres undefined)
    0.715, ., -5.6, ., 6.7, -17.5, -42.7
OC(c1ccccc1)(c1ccccc1)c1nccn1-c1ccccc1
    0.719, ., ., i, -1.4, 3.9, 1.4
CSCC[C@H](NC(=O)N1CCn2c1nc1ccccc12)C(=O)NCc1ccc2c(c1)OCO2
    0.704, -4.8, 0.8, i, 0.7, -12.0, 6.4
CCOC(=O)c1c(S(=O)(=O)NCC(=O)NCc2ccccc2Cl)c(C)n(C)c1C
    0.595, -0.6, 1.4, i, -3.8, 6.9, 2.1
CCOC(=O)CN(C(=O)COc1nc(C)cc(C)c1C#N)c1ccc(Cl)cc1
    0.673, -14.9, -2.4, i, 0.7, -7.7, 2.8
O=C(c1ccc(CSc2nc3ccncc3[nH]2)cc1)N1CCCCC1
    0.768, -4.4, -4.3, i, 0.9, 1.4, 4.4
COCCn1c(SCC(=O)Nc2ccc(S(=O)(=O)N3CCOCC3)cc2)nc2ccccc21
    0.691, ., 1.4, ., 2.2, 8.4, 6.7
Cc1ccc(C)c(OCC(=O)NNC(=O)C2CCC2)c1
    0.714, -4.0, -15.2, i, 0.2, -1.1, 1.3
CC(=O)N1c2ccc(S(=O)(=O)N3CCCC(C(=O)Nc4cccc(Cl)c4)C3)cc2CC1C (centres undefined)
    0.646, 0.7, -0.8, i, 2.8, 10.4, 2.5
O=C(O)c1cccc(NS(=O)(=O)c2ccc(Cl)c(C(=O)O)c2)c1
    0.724, -34.2, -2.6, ., -2.6, 4.9, 5.8
O=C(/C=C/c1ccc(F)cc1)Nc1cccc(S(=O)(=O)Nc2cccc(C(F)(F)F)c2)c1
    0.695, 14.8, -0.1, ., -2.2, 1.0, 2.9
N#CCCN(Cc1cccnc1)C(=S)Nc1ccc(OC(F)F)cc1
    0.7, 0.3, 1.8, i, -0.8, 4.0, 2.4
CN(Cc1ccccc1)S(=O)(=O)c1ccc2[nH]c(=O)oc2c1
    0.714, -1.5, 5.5, i, 3.3, 3.5, 6.1
Cn1cccc1-c1nc2ccccc2[nH]1
    0.674, -7.4, 0.0, i, -3.1, 1.7, 0.4
CC1(C)CC(=NOC(=O)c2ccccc2)CC(C)(C)N1O
    0.664, 28.0, -1.7, i, -5.1, 22.6, 1.5
COc1ccc(NC(=O)C2CC(=O)n3ncnc3N2)cc1 (centres undefined)
    0.749, 0.8, 0.0, ., -0.7, -3.3, 4.2
COC(=O)[C@H](Cc1ccccc1)NC(=O)N1CCN(c2ccc(F)cc2)CC1
    0.652, 98.4*, 0.4, i, -3.5, 4.2, 1.2
Cc1ccc(CN2CCCC(CO)(Cc3ccccc3C)C2)s1 (centres undefined)
    0.666, 1.5, 2.4, i, 3.2, 4.9, 4.3
CC(=O)c1ccc(OCC(=O)OC(C)C(=O)NC2CCCCC2C)cc1 (centres undefined)
    0.669, 1.8, ., i, 2.8, 3.6, -0.9
Cc1ccc(C(=O)O)cc1-c1ccc(/C=C2/NC(=O)N(c3ccccc3)C2=O)o1
    ., 20.6, -2.8, ., -23.6, 0.9, .
Cc1ccsc1C(=O)N(c1nc2ccccc2s1)c1c(C)cccc1C
    0.747, 2.3, 5.8, ., 0.6, 12.6, -1.2
O=c1c2ccccc2c(C=NCc2ccccn2)c(O)n1-c1ccccc1Cl
    0.689, 5.4, 3.0, i, -3.5, 2.2, 6.8
c1ccc(C(c2ccccc2)N2CCN(Cc3nnnn3C3CCCCC3)CC2)cc1
    0.684, ., -1.6, ., -1.2, 8.0, 0.5
C/C(=C\c1ccc(Br)cc1)C(=O)c1c(C)cc(C)[nH]c1=O
    0.711, 32.9, 2.9, i, 2.2, 7.5, 1.8
COc1cccc(C(=O)NCCN2CCOCC2)c1
    0.658, -3.6, -0.9, i, 1.0, 0.3, 5.7
O=C(NNS(=O)(=O)c1ccc(F)cc1)c1cc2ccccc2cc1O
    0.628, 98.4*, 1.6, i, -1.8, -0.2, -0.4
O=C1CS/C(=N/N=C\c2ccn[nH]2)N1
    ., 81.9*, 4.3, i, 2.9, 4.0, .
COCCCNC(=O)c1ccc(CSCc2ccc(C)cc2)o1
    0.656, 10.8, 3.4, i, -1.3, 7.8, -1.9
CCOC(=O)c1ccccc1NC(=O)Cc1ccc(S(=O)(=O)N2CCCC2)s1
    0.65, -0.5, -0.7, i, 8.2, -4.5, -2.5
Cn1cc(S(=O)(=O)Nc2cccc3ccccc23)c(=O)n(C)c1=O
    0.652, 10.8, -6.9, i, -3.3, -5.2, 0.2
CC1CCN(S(=O)(=O)c2cn(CC(=O)N3CC(C)CC(C)C3)c(=O)c3ccccc23)CC1 (centres undefined)
    0.689, -7.9, 4.6, ., -2.0, -2.8, 1.8
CC(=O)Nc1cccc(C(=O)OCC(=O)Nc2ccc(Cl)cn2)c1
    0.63, 0.1, 3.5, i, 0.1, 6.4, 4.3
CCOC(=O)N1CCN(C(=O)C(=O)Nc2sc3c(c2C#N)CC(C)(C)OC3)CC1
    0.657, 3.0, 2.4, i, 1.0, -2.9, 9.7
CCc1ccc2c(c1)cc(CN(Cc1ccco1)C(C)=O)c1nnnn12
    0.725, 3.8, 3.1, i, 0.4, -7.5, 5.0
NC(=O)N/N=C/c1ccc(-c2ccc([N+](=O)[O-])cc2)o1
    ., -7.7, 4.0, i, 8.5, 0.6, .
CN(C)CCNC(=O)c1ccc(Sc2ccc(Br)cc2)c([N+](=O)[O-])c1
    0.672, -8.6, 8.6, i, -1.7, 13.3, 8.7
Cc1[nH]c2ccc(C(=O)Nc3ccncc3)cc2c1C
    0.617, ., -0.7, i, -0.5, 3.9, 0.7
COc1ccc(-c2noc(CCCC(=O)Nc3cccnc3)n2)cc1OC
    0.643, -1.0, -0.9, i, -0.9, -0.2, 3.7
O=C(Nc1ccc(F)cc1)C1(S(=O)(=O)c2ccc(Cl)cc2)CC1
    0.698, -10.0, 2.0, i, -2.2, -5.3, 2.5
O=C(NN=C1CCCCCC1)c1cn(-c2ccccc2)nc1-c1ccccc1
    0.667, -2.6, 0.4, ., 3.4, -22.1, 4.6
N#Cc1c(N2C(=O)Nc3ccccc3N2O)sc2c1CCCCCC2
    0.68, 68.8, 7.0, ., -4.6, -1.7, 3.7
COc1ccc(C)cc1NC(=O)C(Sc1nnc2ccccn12)c1ccccc1 (centres undefined)
    0.716, -1.0, -2.4, ., 0.7, 2.0, 1.2
Cc1nc2ccccn2c1C(=O)NNC(=S)Nc1ccccc1
    0.596, 96.5*, -2.1, i, 0.8, -6.3, 2.1
Cc1csc(N)n1
    0.686, ., -5.3, i, 2.5, 4.3, 21.1*

# (more compounds)
# Every second line gives: Ecoli growth, ALR H2O2 inh, LANA-H2B inh, FGF22 binding, HNF4A DNA FP, B2AR ag, UCH37 inh
CCOC(=O)C1=C(C)NC(=O)C(C#N)C1c1ccco1 (centres undefined)
    0.639, 52.9, 1.5, i, -5.6, 8.9, 1.5
COc1ccc(S(=O)(=O)N2CCN(CCCOc3ccc(F)cc3)CC2)cc1OC
    0.609, -5.6, -1.3, i, 3.1, -3.7, -0.1
CCCCN(C)C(=S)Nc1ccc(Oc2ccccc2)cc1
    0.67, -13.0, -4.6, ., 3.4, -19.6, 0.2
Cc1c(C(=O)OCC(=O)Nc2ccc(C(=O)N(C)C)cc2)oc2ccccc12
    0.746, 0.9, -0.4, i, 7.1, -2.6, 2.5
CSc1ncccc1C(=O)OCc1c(F)cccc1Cl
    0.62, -6.1, -1.4, i, -1.1, -4.1, 1.1
N/C(CC(=O)Nc1cccc(C(F)(F)F)c1)=N/O
    ., ., 2.1, ., -1.8, -0.5, .
O=C(COC(=O)c1ccc(S(=O)(=O)N2CCCC2)cc1)Nc1ccccc1
    0.657, -2.3, 1.5, i, -6.7, -7.5, 2.6
CCOC(=O)c1ccc(NC(=O)c2ccc3c(c2)C(=O)N(CC2CCCO2)C3=O)cc1 (centres undefined)
    0.705, -5.5, -4.4, i, 1.2, 3.1, 2.2
CCC(=O)Nc1c(S(=O)(=O)c2ccc(C)cc2)c2nc3ccccc3nc2n1C(C)c1ccccc1 (centres undefined)
    0.704, -8.8, -6.8, i, 1.7, -1.4, -72.2
CC(=O)Nc1ccc(/C=C/C(=O)c2ccccc2)cc1
    0.67, 31.3, -1.8, ., ., ., 4.5
O=C(Cn1cnc2ccccc2c1=O)Nc1ccc2c(c1)OCCO2
    0.719, -3.4, -1.1, ., 4.1, -0.1, 1.6
CC(=O)Nc1ccc(NC2CCCCC2NS(=O)(=O)c2ccc(Cl)cc2)cc1 (centres undefined)
    0.714, 99.0*, 0.8, i, -1.9, -1.6, 2.8
FC(F)Sc1ccc(NC(=S)NC2CCCC2)cc1
    0.607, -1.6, -0.8, i, -3.8, 1.9, 3.4

# Random excerpt: two records from the list
# Every second line gives: Ecoli growth, ALR H2O2 inh, LANA-H2B inh, FGF22 binding, HNF4A DNA FP, B2AR ag, UCH37 inh
Cc1ccc(C)c(OCC(=O)NNC(=O)C2CCC2)c1
    0.714, -4.0, -15.2, i, 0.2, -1.1, 1.3
N/C(CC(=O)Nc1cccc(C(F)(F)F)c1)=N/O
    ., ., 2.1, ., -1.8, -0.5, .

# Only part of the results is shown (hit frequency here may not be typical).
